KCNQ2 inh: KCNQ2 channel blockers in CHO-K1 cells – cell-based, FluxOR thallium flux, B-score, primary screen (AID 2156). O88943. 20 min; hits give low values; only compounds with negative scores are shown here; some inactives read as strong as hits. B-score at 10 µM. 310,000 compounds, 1.1% hits;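 active = fluorescence ratio B-score at most minus 3 library SDs, with starting brightness B-score within 2 library SDs, cut at about -5.5 in these data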
Target sequence (O88943 whole entry, looked up): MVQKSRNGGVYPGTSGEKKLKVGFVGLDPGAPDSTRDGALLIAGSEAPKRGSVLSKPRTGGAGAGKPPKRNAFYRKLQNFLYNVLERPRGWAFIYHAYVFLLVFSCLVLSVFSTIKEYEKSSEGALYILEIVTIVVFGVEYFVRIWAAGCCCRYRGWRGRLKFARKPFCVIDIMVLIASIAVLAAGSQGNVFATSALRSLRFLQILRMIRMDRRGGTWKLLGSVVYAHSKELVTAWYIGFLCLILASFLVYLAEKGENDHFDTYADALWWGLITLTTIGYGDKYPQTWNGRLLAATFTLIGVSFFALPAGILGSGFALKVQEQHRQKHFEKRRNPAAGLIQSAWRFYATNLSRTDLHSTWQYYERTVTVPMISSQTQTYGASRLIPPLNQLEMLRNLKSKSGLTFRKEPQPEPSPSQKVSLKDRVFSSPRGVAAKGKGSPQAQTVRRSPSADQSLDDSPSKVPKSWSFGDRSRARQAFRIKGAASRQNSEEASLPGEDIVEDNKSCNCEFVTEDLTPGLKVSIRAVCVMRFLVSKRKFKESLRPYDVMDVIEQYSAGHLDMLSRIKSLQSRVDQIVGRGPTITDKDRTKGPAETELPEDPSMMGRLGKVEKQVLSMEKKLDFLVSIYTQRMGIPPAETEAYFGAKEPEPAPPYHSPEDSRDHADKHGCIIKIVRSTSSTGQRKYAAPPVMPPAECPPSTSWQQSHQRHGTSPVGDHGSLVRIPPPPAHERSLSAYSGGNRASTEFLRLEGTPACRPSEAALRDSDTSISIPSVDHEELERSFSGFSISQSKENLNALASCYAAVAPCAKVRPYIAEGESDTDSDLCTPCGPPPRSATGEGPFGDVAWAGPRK
KCNQ2 inh baseline: recorded beside KCNQ2 inh, whose call it bears; B-score; measured here: initial fluorescence intensity artifact check;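 brightness before thallium and not channel activity; 0 = typical well and far values either way flag optical interference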
Numbers without * were called inactive; i = inactive.

SMILES	KCNQ2 inh	KCNQ2 inh baseline
Cc1ccc(S(=O)(=O)NNC(=O)NC23CC4CC(CC(C4)C2)C3)cc1	i	-0.56
O=c1c2cc([N+](=O)[O-])ccc2nc2n1CCCC2	i	2.6
COCCCN(C(=O)c1cc2c(s1)CCC2)c1c(N)n(Cc2ccccc2)c(=O)[nH]c1=O	i	-0.12
O=C(Nc1ccc(S(=O)(=O)N2CCN(Cc3ccccc3)CC2)cc1)c1cnccn1	i	-0.17
CCCCC1=CC2=CC(=O)C(C)(OC(=O)CC)C(=O)C2=CN1C1CCCCC1 (configuration not stated)	i	0.14
Cc1c(NC(=O)C(C)c2ccc(CC(C)C)cc2)c(=O)n(-c2ccccc2)n1C (configuration not stated)	i	1.4
O=C(NCCCN1CCCC1)c1ccc(CS(=O)(=O)c2ccc(Br)cc2)o1	i	-1.2
CCCCC(=O)Nc1ccc2c(c1)nc(CCNC(=O)c1ccco1)n2C	i	0.25
Oc1ccc(/C=N/Nc2nc(N3CCCC3)nc(N3CCCC3)n2)cc1O	i	-0.24
CCn1nc(NC(=O)c2ccco2)c2cc3ccccc3nc21	i	-0.1
CCC(=O)N1CCc2cc(S(=O)(=O)CCC(=O)Nc3nc(C)cs3)ccc21	i	-0.04
CS(=O)(=O)c1ccc(Cl)c(S(=O)(=O)NCc2ccccc2)c1	i	1
CN(CC(=O)Nc1ccccc1Cl)C(=O)COC(=O)Cc1c(F)cccc1Cl	i	1.7
Cc1cccc(NC(=O)c2oc(=O)c3ccccc3c2-c2ccccc2)c1C	i	-0.69
O=C(Nc1ccccc1N1CCN(C(=O)c2ccc(Cl)cc2)CC1)c1ccc(Br)cc1	i	-1.8
CC(C)N(Cc1ccccc1)C(=O)CSc1nccn1C	i	4.3
CC(C)(C)NC(=O)CCn1nc(-c2ccc(Cl)cc2)c2ccccc2c1=O	i	0.44
Cc1ccnc2nc(C(=O)OCC(=O)NC(=O)NCc3ccco3)nn12	i	-0.4
COc1cc2c(cc1NC(=O)C(C)N1CCN(S(=O)(=O)c3ccc(C)c(C)c3)CC1)oc1ccccc12 (configuration not stated)	i	-0.16
COC(=O)C1=C(O)C(C(=O)OC)C(c2ccc(C)cc2)C(C#N)(C#N)C1c1ccc(C)cc1 (configuration not stated)	i	-1.5

4 consecutive entries from above, quoted:
SMILES	KCNQ2 inh	KCNQ2 inh baseline
CCCCC1=CC2=CC(=O)C(C)(OC(=O)CC)C(=O)C2=CN1C1CCCCC1 (configuration not stated)	i	0.14
Cc1c(NC(=O)C(C)c2ccc(CC(C)C)cc2)c(=O)n(-c2ccccc2)n1C (configuration not stated)	i	1.4
O=C(NCCCN1CCCC1)c1ccc(CS(=O)(=O)c2ccc(Br)cc2)o1	i	-1.2
CCCCC(=O)Nc1ccc2c(c1)nc(CCNC(=O)c1ccco1)n2C	i	0.25

Next compounds follow:
SMILES	KCNQ2 inh	KCNQ2 inh baseline
N#Cc1c(-c2ccc3c(c2)OCO3)cc[nH]c1=O	i	0.57
C/C(=C\C(=O)OCCCCCCCCC(=O)O)C[C@@H]1OC[C@H](C[C@@H]2O[C@H]2[C@@H](C)[C@H](C)O)[C@@H](O)[C@H]1O	i	1.1
Nc1nonc1-n1nnc(C(=O)N/N=C/c2cccs2)c1CSc1ccccc1	i	0.85
CCCCC(c1nnnn1C(C)C)N1CCN(C(=O)c2ccco2)CC1 (configuration not stated)	i	-0.47
CCn1c(SCC(N)=O)nnc1-c1ccc2c(c1)OCO2	i	0.35
Cc1cc(-c2ccc(C)c(S(=O)(=O)Nc3ccc(S(N)(=O)=O)cc3)c2)on1	i	1.4
N/C(CC1CC1(Cl)Cl)=N\OC(=O)c1ccccc1 (configuration not stated)	-8.6*	0.75*
COc1ccc2nc(Cl)c(/C=N/Nc3ccccn3)cc2c1	i	0.09
CCN1CCN(C(=O)/C=C/c2ccc(C)o2)CC1	i	0.19
CCn1c(CNC(=O)c2cccc(C)c2)nnc1SCC(=O)Nc1cccc(OC)c1	i	-1
CCOC(=O)C(=O)N1c2ccccc2C(N(C(=O)C(=O)OCC)c2ccccc2)CC1C (configuration not stated)	i	0.28
CCSc1nc(N)c(NC(=O)c2ccc(Br)o2)c(=O)[nH]1	i	1.7
N#Cc1cccc(C(=O)OCC(=O)NCc2ccco2)c1	i	-0.25
COc1ccc(NC(=O)/C=C/c2ccccc2)c([N+](=O)[O-])c1	i	0.59
COC(=O)c1cccc(C23CC4(C2)[C@H](CN(CC2CCCCC2)[C@@H]4c2ccccc2)C3c2ccccc2)c1 (some centres not stated)	i	-0.03
Cc1ccc(-n2c(-c3ccco3)nc3c(cnn3-c3ccc(C)cc3)c2=O)cc1	i	0.29
COc1ccc(CCNC(=O)CCCOc2ccc(Cl)cc2)cc1OC	i	0.9
CCOC(=O)Cn1cc(C#N)c2cccc(CC)c21	i	-0.31
CCOc1ccc(-c2nc(CN3CCCC(C(=O)N4CCOCC4)C3)c(C)o2)cc1 (configuration not stated)	i	0.39
O=C(Nc1ccccc1)Nc1scc2c1c(=O)oc1ccccc12	i	0.61

Arranged by length of the SMILES (rising): some entries from above.
SMILES	KCNQ2 inh	KCNQ2 inh baseline
N/C(CC1CC1(Cl)Cl)=N\OC(=O)c1ccccc1 (configuration not stated)	-8.6*	0.75*
COc1ccc(CCNC(=O)CCCOc2ccc(Cl)cc2)cc1OC	i	0.9
Nc1nonc1-n1nnc(C(=O)N/N=C/c2cccs2)c1CSc1ccccc1	i	0.85
CCOC(=O)C(=O)N1c2ccccc2C(N(C(=O)C(=O)OCC)c2ccccc2)CC1C (configuration not stated)	i	0.28

Next structures
SMILES	KCNQ2 inh	KCNQ2 inh baseline
O=C(O)CSc1ccnc2cc(Cl)ccc12	i	1.4
COC(=O)c1ccc(C(=O)N2CCCC(CNC(=O)c3ccccc3Cl)C2)cc1 (configuration not stated)	i	2.1
CNc1sc(C(=O)c2ccccc2F)c(N)c1-c1nc2ccccc2s1	i	0.01
CC(C)OC(=O)/C(=C/c1cccnc1)NC(=O)c1ccccc1	i	-0.72
CC(=O)N(C)c1ccc(NC(=S)Nc2ccc(C(C)C)cc2)cc1	i	-2.3
O=C(CCn1cccc1)Nc1ccccc1F	i	1.5
COc1cc(C2SCC(=O)N2c2c(C)n(C)n(-c3ccccc3)c2=O)ccc1O (configuration not stated)	i	-0.1
Cc1cccc(OCCSc2nnc(-c3ccoc3C)n2C)c1	i	2
CCOc1cc([C@H]2[C@@H]3CCCC[C@]3(O)CCN2CC(=O)NCc2ccco2)ccc1O	i	1.4
COc1ccccc1C(O)P(=O)(OC1CCCCC1)OC1CCCCC1 (configuration not stated)	i	-0.01
O=C(N1CCOCC1)N1CCN(c2ccccc2F)CC1	i	-0.03
CC(C)c1ccc(S(=O)(=O)N2CCN(C(=O)CN3C(=O)NC4(CCCCC4)C3=O)CC2)cc1	i	0.46
CSCCc1nc(SCC(=O)Nc2nnc(C)s2)[nH]c1C	i	-0.2
CC1(C)NC(=O)N(CC(=O)Nc2cc(S(=O)(=O)N3CCOCC3)ccc2N2CCOCC2)C1=O	i	2.8
Cc1ccc(NC(=S)NC2CCSc3ccccc32)cc1C (configuration not stated)	i	-0.68
Cc1ccc(/C=C/C2=NN(Cc3ccccc3)C(=O)CC2)cc1	i	-0.31
COC(=O)c1ccccc1NC(=O)CS(=O)(=O)Cc1nc(-c2ccc(C)cc2)oc1C	i	-0.03
COc1ccc(-c2cc(-c3n[nH]c(=S)n3-c3cccc4ccccc34)[nH]n2)cc1	i	2
CCOC(=O)c1oc2ccc(CNC3CCCCC3)c(Cl)c2c1C	i	-1.5
CN1CCN(C(=O)c2ccc(Oc3ccc([N+](=O)[O-])cc3)cc2)CC1	i	0.66
CC(=O)c1cccc(NC(=O)Nc2cnn(Cc3ccc(Cl)cc3Cl)c2)c1	i	-0.58
CSc1nnc(-c2nnc(SC)n2-c2ccccc2)n1-c1ccccc1	i	-0.03
Cc1cc(NC(=O)CSc2nnc(C)c(=O)[nH]2)no1	i	0.56
O=C(CC1C(=O)NCCN1Cc1ccccc1C(F)(F)F)NCCc1ccccn1 (configuration not stated)	i	2.4
CC(C)(C)NC(=O)COc1ccc(CNCCc2ccccc2)cc1	i	1.3
O=c1[nH]c(N2CCOCC2)nc2ncn(Cc3ccccc3)c12	i	-2.5
O=C(N/N=C/c1ccc(O)c(O)c1O)/C(=C/c1ccc([N+](=O)[O-])cc1)NC(=O)c1ccccc1	i	0.19
CCOC(=O)c1ccc2c(c1)n(CC)c(/C=C/Nc1ccccc1)[n+]2CC	i	-0.55
COc1ccc2nc3oc(C(=O)N4CCN(c5cccc(C(F)(F)F)c5)CC4)cc3cc2c1	i	-2.1
CCc1ccc(OCC(=O)N/N=C/c2ccc(OS(=O)(=O)c3ccc(C)cc3)c(OC)c2)cc1	i	1.3
O=C(NCCc1ccccn1)c1ccc(OC2CCN(Cc3ccccn3)CC2)cc1	i	0.74
C=CCNC(=O)CCc1nnc(C2(c3ccc(Cl)cc3)CCC2)o1	i	1.4
COc1cc(/C=C/C(=O)O)cc(S(=O)(=O)NCc2ccc3c(c2)OCO3)c1OC	i	-1
CN(C[C@H](Cc1ccccc1)N(CCN(CCc1ccccc1)N=O)N=O)N=O	i	1.8
CCSc1nnc(NC(=O)C2CCN(S(=O)(=O)c3cc(C(F)(F)F)ccc3Cl)CC2)s1	i	1.2
O=C(c1nc2nc(-c3ccccc3)cc(C(F)(F)F)n2n1)N1CCOCC1	i	-0.01
CC(=O)c1ccc(-c2ccc(C(=O)N3CCCc4ccccc43)o2)cc1	i	1.4
Cc1ccc(CNC(=O)CSc2nc3ccccc3c(=O)n2CCCO)cc1	i	-1.5
Cc1ccc(-n2nc3c(=O)n(C(C)C(=O)NCCC4=CCCCC4)nc(C)c3c2C)cc1 (configuration not stated)	i	-2.3
Cc1nn(CCc2nn[nH]n2)c2nc(-c3ccc(Br)cc3)cc(C(F)(F)F)c12	i	-0.79

Rewritten as labelled records: entries from further up.
Cc1ccc(S(=O)(=O)NNC(=O)NC23CC4CC(CC(C4)C2)C3)cc1
  KCNQ2 inh: i
  KCNQ2 inh baseline: -0.56

CCN1CCN(C(=O)/C=C/c2ccc(C)o2)CC1
  KCNQ2 inh: i
  KCNQ2 inh baseline: 0.19

Continued:
SMILES	KCNQ2 inh	KCNQ2 inh baseline
Cc1ccc(S(=O)(=O)N(C)C)cc1NC(=O)c1ccccc1Br	i	1.1
OC(CN1CCOCC1)c1ccc(F)cc1 (configuration not stated)	i	-0.38
Cc1ccc(NC(=O)COC(=O)c2ccc(=O)n(Cc3ccccc3)n2)cc1F	i	0.27
CC(C)n1cnc2cc(NCc3ccccc3O)ccc21	i	-0.61
COC(=O)c1ccc(NC(=O)CNCc2ccncc2)cc1	i	1.8
COc1cccc(C(=O)Nc2cccc(NC(C)=O)c2)c1	i	0.22
O=C(C1CCCN(S(=O)(=O)c2cccc3nsnc23)C1)N1CCc2ccccc2C1 (configuration not stated)	i	-0.73
Cc1[nH]n(-c2nc(-c3ccccc3F)cc(=O)[nH]2)c(=O)c1CCO	i	0.04
CCCOC(=O)Nc1c(C)cccc1C(C)C	i	2.3
CCc1ccccc1NC(=S)N(Cc1ccc(OC)cc1)CC1CCC(C(=O)O)CC1 (configuration not stated)	i	-0.23
CC1=C(C(=O)N2CCOCC2)C(c2ccc(-c3ccccc3)cc2)NC(=S)N1 (configuration not stated)	i	0.19
COc1ccc(CNc2ccc3c(c2)CCC3)cc1OC	i	-1.1
Cc1onc(-c2ccccc2Cl)c1C(=O)N(C)Cc1ccccc1	i	1.4
Cc1ccc(-c2nn(C)c(=O)c3ccccc23)cc1S(=O)(=O)NCCN1CCOCC1	i	0.01
C/C(=N\NC(=O)c1nnn(-c2nonc2N)c1CN1CCCCC1)c1ccccc1O	i	-1.1
CS(=O)(=O)N(CC(=O)N1CCN(Cc2ccccc2)CC1)c1ccccc1Br	i	0.2
Cc1ccc(N2C(=O)[C@@H]3[C@H](C2=O)C2c4ccccc4C=NN2[C@@H]3C(=O)c2ccc(Cl)cc2)cc1 (some centres not stated)	i	1.1
COP(=O)(OC)C(Nc1ccc(Cl)cc1)c1ccccc1 (configuration not stated)	i	-0.05
O=C1N/C(=C\c2nc3ccccc3s2)c2ccccc21	i	-0.03
CCOc1ccc(C2=NNC(c3cccs3)=Nc3ccc(OC)cc32)cc1	-5.6*	0.14*
C=CCC1(N(C(C)=O)c2ccccc2)CCCCC1	i	-0.39
Nc1cc(=O)[nH]c(=O)n1Cc1ccccc1	i	-1.1
CCOc1ccc(C(C)NC(=O)Nc2ccccc2C(=O)OC)cc1 (configuration not stated)	i	-0.48
CCN(Cc1cc2ccccc2[nH]c1=O)C(=O)C1CCCCC1	i	0.84
CCOc1cccc2cc(-c3nnc(NCc4ccc5c(c4)OCO5)s3)c(=O)oc12	i	1.9
Cc1cccc(N2CCN(c3nc4nonc4nc3N3CCSCC3)CC2)n1	i	-0.41
Cc1ccccc1NC(=O)COC(=O)CCc1ccccc1	i	0.13
CC/C(Cc1ccccc1)=N\NC(=O)c1cc([N+](=O)[O-])cc([N+](=O)[O-])c1	i	0.39
CC(=O)c1c(C)[nH]c(C(=O)OCC(=O)Nc2cccc(S(=O)(=O)N(C)C)c2)c1C	i	-0.61
O=S(=O)(c1ccc(Oc2ccccc2)cc1)N1CCOCC1	i	1.5
COc1ccc(S(=O)(=O)Nc2cc(C)c(O)cc2C(C)C)cc1	i	-1.9
COc1ccccc1-c1cc(C(=O)NC(C)c2ccccc2)no1 (configuration not stated)	i	0.77
Cc1ccc(OCc2cc(C(=O)N3CCc4sccc4C3)no2)cc1C	i	-0.42
CCCCn1c(N)c(N(CCOC)C(=O)CN2c3ccccc3CC2C)c(=O)[nH]c1=O (configuration not stated)	i	1.6
Cc1ccc(S(=O)(=O)N2CCOC23CCN(C(=O)c2ccc(Cl)cc2Cl)CC3)cc1	i	1.9
C/C(CC(=O)Nc1cccc(Cl)c1Cl)=N\NC(=O)c1ccccc1Br	i	0.69
CCOC(=O)C(NC(=O)c1cccc(Cl)c1)(OCc1ccccc1)C(F)(F)F (configuration not stated)	i	-0.89
NC(=O)c1ccc(NC(=O)CN2CCN(c3ccccc3)CC2)cc1	i	-0.66

Screening results: PubChem BioAssay, Johns Hopkins Ion Channel Center

Only part of the results is shown. The share of hits here may be higher or lower than overall.
